Screens: PubChem, several laboratories
GALR2 ag: GALR2 receptor agonists, primary screen, cell-based | AID 803, 2007 | GALR2-expressing cells, agonist activation read-out | Galanin receptor type 2 (Homo sapiens), O43603 | hit rate 0.48% among 140,000 | activation, %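 (tested at 5 µM)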;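 active = above mean plus 3 SD of all compounds, about 5% in these data, not always enough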;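 note: 0% = vehicle buffer wells and 100% = reference agonist at full effect; tested in CHO reporter cells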
Target sequence (O43603 whole entry, looked up): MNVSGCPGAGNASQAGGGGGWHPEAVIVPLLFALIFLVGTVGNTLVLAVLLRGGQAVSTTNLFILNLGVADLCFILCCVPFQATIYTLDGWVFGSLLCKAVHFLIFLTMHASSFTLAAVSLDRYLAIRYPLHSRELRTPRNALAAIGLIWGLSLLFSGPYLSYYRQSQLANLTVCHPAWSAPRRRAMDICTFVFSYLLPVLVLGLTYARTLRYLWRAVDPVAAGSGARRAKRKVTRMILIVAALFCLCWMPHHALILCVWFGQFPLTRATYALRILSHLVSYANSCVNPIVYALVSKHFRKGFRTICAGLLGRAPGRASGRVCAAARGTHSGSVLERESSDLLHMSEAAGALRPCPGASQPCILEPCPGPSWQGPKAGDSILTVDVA
RGS16-Gao HTS: modulators of RGS16 binding to Galphao, primary screen, biochemical, human proteins, multiplexed bead flow cytometry. Regulator of G-protein signaling 16 (Homo sapiens) + Guanine nucleotide-binding protein …. bead-based flow cytometry RGS16-Galphao binding, fluorescence; actives lie on both sides. binding response (% of control), % at 10 µM. hit rate 0.38% among 220,000. AID 1441, 2008;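 active = below 25% or above 175%, edge rows of some plates excepted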;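 note: Galphao activated by GDP with aluminum fluoride before binding; 100% = wells without compound and 0% = beads without RGS; some results beyond the cut were filed as inactive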
Target sequence (O15492 whole entry, looked up): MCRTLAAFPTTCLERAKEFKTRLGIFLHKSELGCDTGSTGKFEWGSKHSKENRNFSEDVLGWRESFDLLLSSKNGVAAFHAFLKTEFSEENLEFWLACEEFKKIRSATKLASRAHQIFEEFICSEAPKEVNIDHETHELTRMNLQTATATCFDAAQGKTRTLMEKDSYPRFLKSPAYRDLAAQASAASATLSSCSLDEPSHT
Target sequence (P09471 whole entry, looked up): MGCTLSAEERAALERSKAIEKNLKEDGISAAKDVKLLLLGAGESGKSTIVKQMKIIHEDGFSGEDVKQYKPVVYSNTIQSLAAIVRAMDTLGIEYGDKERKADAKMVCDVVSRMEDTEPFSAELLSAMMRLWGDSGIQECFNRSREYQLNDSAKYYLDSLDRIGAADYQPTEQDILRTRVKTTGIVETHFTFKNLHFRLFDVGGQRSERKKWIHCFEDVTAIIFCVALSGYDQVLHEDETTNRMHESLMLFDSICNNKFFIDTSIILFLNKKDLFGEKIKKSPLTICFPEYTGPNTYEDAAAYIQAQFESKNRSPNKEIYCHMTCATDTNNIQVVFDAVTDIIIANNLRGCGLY
INS promoter inh: inhibitors of insulin promoter-driven GFP, primary screen, imaging, TRM-6 cells (human fetal islet line), eGFP reporter, cell count | reporter expression induced with tamoxifen | inhibition, % at 2 µM | hit rate 0.9% among 130,000 | AID 1273, 2008;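 active = inhibition above the mean plus 3 SD, with well images judged a real hit on visual review, cut at about 60% in these data, passing the limit was not always enough; inconclusive = inhibition over the cutoff but images rejected on review; inactive = inhibition not above the cutoff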
PKD1 inh: inhibitors of human PKD1 kinase, biochemical, fluorescence polarization; Serine/threonine-protein kinase D1 (Homo sapiens), Q15139; inhibition, %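 (about 10 µM by stock and volumes)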; PKD1 kinase fluorescence polarization assay; AID 797, 2007; hit rate 0.056% among 200,000;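 active = inhibition of 50% or more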;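 note: controls were vehicle for no effect and a reference inhibitor for full effect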
HSV replic up: enhancers of HSV replication in host cells, fold increase, host cell viability. hit rate 0.005% among 220,000. AID 1956, 2009. HSV replication augmentation in cells. maximum fold increase;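 active = peak rise of 1.5-fold or more in the series; inconclusive = self-fluorescent or not available for retest; tested in PC3 cells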;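 note: first round at 10 µM; read as green reporter fluorescence; hits show the peak of a series up to 25 µM; 1 = signal of infected wells without compound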
INS promoter inh cell count: second read-out of INS promoter inh, no call of its own (marks repeat the call); normalized cell count, %; measured here: cell count, toxicity; reference of the scale not given here;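 cells exposed to compound for 48 h; stained nuclei by imaging scaled within each plate; lower means fewer cells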
HSV replic up primary fold: recorded beside HSV replic up, whose call it bears; fold increase; compound at 10 µM; measured here: primary screen fold increase 10 uM; tested in PC3 cells;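 GFP signal in the first replicate; 1 = infected wells without compound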
* hit, by the source's call; i = inactive; ? = inconclusive; nt = no result given.

# | SMILES | GALR2 ag | RGS16-Gao HTS | INS promoter inh | INS promoter inh cell count
1 | NNC(=O)c1ccc2ccccc2n1 | nt | 92 | nt | nt
2 | CCC(CC)C(=O)NN(C(=O)c1ccncc1)C1CC(=O)N(c2ccccc2)C1=O (centres undefined) | nt | 98 | nt | nt
3 | C=CCNc1ncnc2c1ncn2C1OC(CO)C(O)C1O (centres undefined) | -2.2 | 89 | nt | nt
4 | CCC(=O)Nc1nonc1-c1nc2ccccc2n1CCC(C)C | -0.9 | 99 | nt | nt
5 | CN(C)S(=O)(=O)c1cccc(NC(=O)c2cc3c(=O)n4ccccc4nc3s2)c1 | -1.0 | 76 | nt | nt
6 | COc1cc2c(cc1NC(=O)COC(=O)/C=C/c1ccccc1)oc1ccccc12 | -0.1 | 101 | nt | nt
7 | Cc1cc(NC(=O)CSc2nc3c(c(=O)n2-c2ccccc2)SC(C)C3)no1 (centres undefined) | -1.3 | 96 | -86 | 93
8 | CC(=O)O[C@@H]1[C@H]2[C@@H](C[C@@H](C)[C@@H]3C=CC(=O)[C@@]13C)OC(=O)[C@@H]2C | nt | 102 | nt | nt
9 | Cc1cc(/C=C(/C#N)c2cccc(F)c2)c(C)n1-c1cccnc1 | -0.4 | 103 | nt | nt
10 | NC(=O)CSc1nnc(-c2cccnc2)n1Cc1ccccc1 | -2.8 | 40 | -6 | 110
11 | CCn1nc(NC(=O)c2ccncc2)c2cc3cccc(C)c3nc21 | 0.4 | 98 | nt | nt
12 | O=C(Cn1cc(C(F)(F)F)cc(Cl)c1=O)NCCc1ccc(Cl)cc1Cl | nt | 99 | nt | nt
13 | CN(C)S(=O)(=O)c1cccc(NC(=S)NCc2ccco2)c1 | nt | 98 | nt | nt
14 | C=CCN1N=C(/C=C/c2ccccc2)CCC1=O | nt | 100 | 53 | 117
15 | Cc1ccc(C)c(N(C(=O)Cn2nnc(-c3cccs3)n2)C(C(=O)NC2CCCC2)c2ccncc2)c1 (centres undefined) | -2.6 | 107 | 30 | 92

# | PKD1 inh | HSV replic up | HSV replic up primary fold
1 | -4 | i | 0.97
2 | nt | i | 1
3 | -11 | i | 0.68
4 | 16 | i | 1
5 | -12 | i | 1.2
6 | -6 | i | 0.94
7 | 1 | i | 0.89
8 | nt | i | 0.94
9 | 0 | i | 0.89
10 | -8 | i | 0.74
11 | 7 | i | 1
12 | nt | i | 0.79
13 | -11 | i | 1
14 | -10 | i | 0.94
15 | 8 | i | 0.94

Carrying on:
# | SMILES | GALR2 ag | RGS16-Gao HTS | INS promoter inh | INS promoter inh cell count
16 | O=C(CSc1n[nH]c(-c2ccncc2)n1)Nc1ccccn1 | -2.4 | 99 | 9 | 114
17 | Cc1ccc(S(=O)(=O)N2CCCN(S(=O)(=O)c3ccc4ccccc4c3)CC2)cc1 | -0.8 | 105 | 6 | 103
18 | Cc1c(Cc2ccccc2)c(=O)oc2cc(O)cc(O)c12 | nt | 101 | nt | nt
19 | O=C(/C=C1\SC(=O)NC1=O)Nc1ccc(C(=O)O)cc1 | nt | 99 | nt | nt
20 | CC(=O)c1ccc(NC(=O)N2CCN(c3ccc(C)cc3)C(C)C2)cc1 (centres undefined) | nt | 96 | nt | nt
21 | CC1=C(C(=O)Nc2ccccc2)C(c2cc(CN3CCOCC3)cs2)C2=C(CCCC2=O)N1 (centres undefined) | nt | 102 | -18 | 83
22 | COc1ccc([N+](=O)[O-])cc1NC(=O)C1CCCCC1C(=O)O (centres undefined) | -1.4 | 62 | -75 | 93
23 | CCOC(=O)N1CCN(c2nc(N(c3ccccc3)c3ccccc3)nc(-n3ccnc3)n2)CC1 | nt | 99 | nt | nt
24 | Cn1c(=O)[nH]c(=O)c2c1nc(N1CCCCCC1)n2Cc1cccc2ccccc12 | -2.4 | 104 | -20 | 46
25 | Cc1cc(-c2ccco2)n(CC(=O)O)n1 | -1.4 | 105 | nt | nt
26 | Cc1ccc(C(=O)Nc2ccc(O)cc2C(=O)O)cc1C | -1.5 | 92 | 23 | 105
27 | Cn1c(CN2CCOCC2)nc2cc(NC(=O)c3ccc(F)cc3)ccc21 | 0.8 | 100 | 23 | 118
28 | Clc1ccc(-c2nnc(-c3ccccc3)c(-c3ccccc3)n2)cc1 | nt | 108 | nt | nt
29 | O=C(CCC(=O)Nc1ccccc1)N/N=C/c1ccccc1F | nt | 102 | -38 | 103
30 | Cc1cc2nc3c(=O)n(C4CCCCC4)c(=O)[nH]c3nc2cc1N | -0.2 | 63 | -343 | 105

# | PKD1 inh | HSV replic up | HSV replic up primary fold
16 | 0 | i | 0.84
17 | -4 | i | 0.82
18 | -4 | i | 0.99
19 | nt | i | 1.1
20 | -5 | i | 1.1
21 | 4 | i | 1
22 | -5 | i | 1
23 | nt | i | 0.99
24 | 2 | i | 0.93
25 | 1 | i | 0.9
26 | 1 | i | 0.67
27 | -1 | i | 0.91
28 | nt | i | 1.3
29 | 1 | i | 0.97
30 | 57* | ? | nt

(cont.)
# | SMILES | GALR2 ag | RGS16-Gao HTS | INS promoter inh | INS promoter inh cell count
31 | Cc1ccc(-c2cn(S(=O)(=O)c3cccc4nsnc34)nc2N)cc1 | -1.8 | 95 | -25 | 79
32 | CCOc1ccc(S(=O)(=O)NNC(=O)c2cc3ccccc3o2)cc1 | 0.0 | 105 | -28 | 107
33 | COc1ccc(CNc2cc(C)nc3ncnn23)c(OC)c1 | -1.4 | 96 | nt | nt
34 | CCc1nc(SCC(=O)Nc2sc(C)c(C)c2C(=O)OC)c2ccccc2n1 | -0.6 | 94 | 45 | 80
35 | CCCN(CCC)c1ccc(/C=N/NC(=O)CN2CCOCC2)cc1 | nt | 96 | nt | nt
36 | Cc1cc2ncn(S(=O)(=O)N(C)C)c2cc1C | -4.0 | 95 | -12 | 95
37 | Cc1c(Cl)cccc1NC(=O)CNCc1ccccc1F | nt | 99 | nt | nt
38 | CC(C)C(=O)N1CCC(CN=CC2=C(O)CC(C)(C)CC2=O)CC1 | -1.5 | 81 | 11 | 113
39 | CC(C)CNC(=O)[C@H](Cc1ccccc1)NC(=O)c1ccco1 | -2.5 | 95 | -33 | 108
40 | CCOc1ccc(NC(=O)CC2C(=O)N(CC)C(=S)N2CCNC(C)=O)cc1 (centres undefined) | 0.3 | 103 | -24 | 107
41 | CCc1ccc(-c2csc3ncn(Cc4ccc(C(=O)O)cc4)c(=O)c23)cc1 | nt | 99 | 14 | 56
42 | COc1ccc(S(=O)(=O)N2CCN(C(=O)COc3ccccc3)CC2)cc1 | nt | 100 | nt | nt
43 | CC1C(=O)OC(c2ccc(Br)cc2)C(C)(C)C1=O (centres undefined) | nt | 97 | nt | nt
44 | COc1ccc(/C=N/S(=O)(=O)c2cccs2)cc1 | -1.6 | 101 | -44 | 117
45 | COc1ccc(N2C(=O)C3ON(C4SC(=S)N(C)C4(C)C)C(c4ccc([N+](=O)[O-])cc4)C3C2=O)cc1 (centres undefined) | 0.5 | 111 | 25 | 142

# | PKD1 inh | HSV replic up | HSV replic up primary fold
31 | 0 | i | 0.9
32 | -7 | i | 0.74
33 | 2 | i | 1.1
34 | 20 | i | 0.92
35 | -2 | i | 0.97
36 | 5 | i | 0.81
37 | 4 | i | 0.9
38 | -8 | i | 1
39 | 18 | i | 0.62
40 | -12 | i | 1.1
41 | 0 | i | 1
42 | -3 | i | 0.96
43 | nt | i | 1.1
44 | -5 | i | 0.76
45 | -4 | i | 0.87

Given with bars between the fields: entries from further up.
no. | molecule | GALR2 ag | RGS16-Gao HTS | INS promoter inh | INS promoter inh cell count | PKD1 inh | HSV replic up | HSV replic up primary fold
31 | Cc1ccc(-c2cn(S(=O)(=O)c3cccc4nsnc34)nc2N)cc1 | -1.8 | 95 | -25 | 79 | 0 | i | 0.9
32 | CCOc1ccc(S(=O)(=O)NNC(=O)c2cc3ccccc3o2)cc1 | 0.0 | 105 | -28 | 107 | -7 | i | 0.74
33 | COc1ccc(CNc2cc(C)nc3ncnn23)c(OC)c1 | -1.4 | 96 | nt | nt | 2 | i | 1.1
34 | CCc1nc(SCC(=O)Nc2sc(C)c(C)c2C(=O)OC)c2ccccc2n1 | -0.6 | 94 | 45 | 80 | 20 | i | 0.92
35 | CCCN(CCC)c1ccc(/C=N/NC(=O)CN2CCOCC2)cc1 | nt | 96 | nt | nt | -2 | i | 0.97
36 | Cc1cc2ncn(S(=O)(=O)N(C)C)c2cc1C | -4.0 | 95 | -12 | 95 | 5 | i | 0.81
37 | Cc1c(Cl)cccc1NC(=O)CNCc1ccccc1F | nt | 99 | nt | nt | 4 | i | 0.9
38 | CC(C)C(=O)N1CCC(CN=CC2=C(O)CC(C)(C)CC2=O)CC1 | -1.5 | 81 | 11 | 113 | -8 | i | 1
39 | CC(C)CNC(=O)[C@H](Cc1ccccc1)NC(=O)c1ccco1 | -2.5 | 95 | -33 | 108 | 18 | i | 0.62
40 | CCOc1ccc(NC(=O)CC2C(=O)N(CC)C(=S)N2CCNC(C)=O)cc1 (centres undefined) | 0.3 | 103 | -24 | 107 | -12 | i | 1.1
41 | CCc1ccc(-c2csc3ncn(Cc4ccc(C(=O)O)cc4)c(=O)c23)cc1 | nt | 99 | 14 | 56 | 0 | i | 1

Following part.
# | SMILES | GALR2 ag | RGS16-Gao HTS | INS promoter inh | INS promoter inh cell count
46 | CC1CCN(C(=O)c2ccc3c(c2)OCCO3)CC1 | -0.7 | 108 | 24 | 96
47 | COc1cccc(CNC(=O)CCNC(=O)Cn2ccc3ccccc3c2=O)c1 | -0.5 | 101 | -23 | 130
48 | Cc1ccc2c(c1)N/C(=C(\C=C(/Cl)[N+](=O)[O-])[N+](=O)[O-])N2 | nt | 105 | -138 | 29
49 | OCCCC1CCCN(Cc2cn[nH]c2-c2ccc(F)cc2F)C1 (centres undefined) | nt | 92 | nt | nt
50 | CSc1nnc2c3c4c(sc3nc(-n3nc(C)cc3C)n12)COC(C)(C)C4 | 0.7 | 102 | 58 | 152
51 | O=C(c1csc2ccccc12)N1CCCCCC1 | -1.2 | 105 | 22 | 104
52 | Cc1ccc(-c2cc(C(=O)N3N=C(C(F)F)CC3(O)C(F)F)c3ccccc3n2)cc1C (centres undefined) | 0.8 | 116 | 7 | 87
53 | O=C(c1ccccc1Cl)N(Cc1ccccc1F)N1C(=O)CCCC1=O | nt | 111 | nt | nt
54 | Cc1ccc(-c2nc3ccc(Cl)cc3n2OC(C)C(=O)O)cc1 (centres undefined) | nt | 107 | 53 | 86
55 | c1ccc2c(c1)Cn1nnnc1-2 | -1.1 | 101 | 29 | 107
56 | CCOC(=O)Cc1cc(=O)n2[nH]c(C)cc2n1 | -3.5 | 103 | -64 | 154
57 | COCCN=C1NC(=O)C(CC(=O)Nc2cccc(Cl)c2C)S1 (centres undefined) | nt | 91 | nt | nt
58 | COc1ccccc1-c1c(NC(=O)C(C)C)n(C)c2ccccc2c1=O | nt | 107 | nt | nt
59 | CCc1n[nH]c(=S)n1N=C1CCC(C)CC1 (centres undefined) | nt | 104 | nt | nt
60 | CC(=O)N1N=C(c2ccco2)CC1c1cc2cc(C)ccc2nc1Cl (centres undefined) | nt | 96 | nt | nt

# | PKD1 inh | HSV replic up | HSV replic up primary fold
46 | 1 | i | 1
47 | -7 | i | 0.91
48 | -2 | i | 0.88
49 | -2 | i | 0.91
50 | -16 | i | 0.9
51 | -5 | i | 1.1
52 | 7 | i | 0.89
53 | -9 | i | 1
54 | -5 | i | 0.92
55 | -6 | i | 0.92
56 | -4 | i | 1
57 | -6 | i | 0.99
58 | nt | i | 0.98
59 | -10 | i | 0.94
60 | nt | i | 0.99

Next part:
# | SMILES | GALR2 ag | RGS16-Gao HTS | INS promoter inh | INS promoter inh cell count
61 | O=c1c2ccccc2c2ccccc2c(=O)n1Cc1cccnc1 | -1.4 | 100 | -16 | 140
62 | CCSc1nc(O)c(CC)c(=O)n1C(C)CC (centres undefined) | -2.7 | 111 | 22 | 102
63 | N#Cc1ccccc1OCC(=O)C1CC1 | nt | 92 | nt | nt
64 | Oc1ccc(/C=N/Nc2nccnc2Cl)cc1 | -1.1 | 101 | 8 | 110

# | PKD1 inh | HSV replic up | HSV replic up primary fold
61 | -4 | i | 1
62 | 0 | i | 1.1
63 | nt | i | 1.1
64 | -3 | i | 0.81
